ALR H2O2 inh = inhibitors of human ALR sulfhydryl oxidase, primary screen, biochemical, H2O2 detection, HRP-luminol luminescence, single point. purified ALR, DTT oxidation. inhibition, % (test concentration not listed). hit rate 3.8% among 290,000. AID 485317, 2010;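 active = mean and each replicate at 75% or more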;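 note: stock transfer was 7.5 nL into about 7.5 µL; 0% = neutral wells and 100% = wells with inactivated enzyme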
Target sequence (P55789 whole entry, looked up): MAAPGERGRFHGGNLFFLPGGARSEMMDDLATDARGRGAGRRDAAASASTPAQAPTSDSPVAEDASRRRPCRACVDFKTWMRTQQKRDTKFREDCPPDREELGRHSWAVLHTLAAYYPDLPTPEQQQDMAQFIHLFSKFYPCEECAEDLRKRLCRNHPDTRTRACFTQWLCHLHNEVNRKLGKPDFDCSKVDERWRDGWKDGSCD
Ecoli rRNA inh = reduced GFP signal of wild-type E. coli, primary screen, bacterial rRNA inhibitor project, GFP/RFP fluorescence, OD600, single point | E. coli WT GFP vs humanized-ribosome RFP mutants, 24 h; hits give low values; DMSO median 0, no signal -100 | GFP signal change (wild-type ribosome), % (concentration not given with the values) | hit rate 1.6% among 350,000;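 active = significant combined selectivity score with lowered wild-type GFP, culture density cut under 30%, mutant RFP and density less affected; inactive = any of these conditions unmet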; note: one replicate is shown; some compounds called inactive have numbers as strong as hits
HNF4A DNA FP = change in binding of human HNF4A to DNA, primary screen, biochemical, fluorescence polarization, FITC-DNA. Hepatocyte nuclear factor 4-alpha (Homo sapiens), P41235. AID 1224865, 2016. hit rate 0.3% among 360,000. activity change, % at 10 µM. 1 h; in the data active = activity change above about 30%, passing the limit was not always enough;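 note: controls were the assay level and a saturating level of protein; the project sought stronger binding though the title names inhibitors; some compounds called inactive have numbers as strong as hits; positive values seem to mean higher polarization but the record does not say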
E coli growth = E. coli growth inhibition, primary screen, OD600 | Escherichia coli growth, 23 h; hits give low values | OD600 absorbance (test concentration not listed) | hit rate 0.21% among 330,000 | AID 1053175, 2014;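 active = OD600 absorbance below the run mean of sample wells minus 3.6 SD, in any replicate, cut at about 0.56 in these data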;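 note: stock transfer was 300 nL into about 60 µL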
FGF22 binding = binders of human FGF22 protein, primary screen, FGF22 synaptogenesis inhibitor project, biophysical, thermal shift, single point | calls only at 9.99 µM | hit rate 1.5% among 340,000 | Fibroblast growth factor 22 (Homo sapiens), Q9HCT0 | recombinant FGF22 thermal shift, SYPRO orange fluorescence; percent of sucrose octasulfate shift, DMSO zero;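 active = melting point raised past a set limit in the mean and every replicate; three in four hits are not shown here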
Target sequence (Q9HCT0 whole entry, looked up): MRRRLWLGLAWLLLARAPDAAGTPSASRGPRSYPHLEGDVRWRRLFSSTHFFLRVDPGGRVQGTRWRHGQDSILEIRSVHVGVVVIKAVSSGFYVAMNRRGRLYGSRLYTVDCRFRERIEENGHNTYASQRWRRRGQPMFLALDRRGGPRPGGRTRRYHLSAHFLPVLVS
B2AR ag = beta2AR agonists driving receptor internalization, primary screen, cell-based, FAP fluorogen, flow cytometry | AID 504454, 2011 | response, % (concentration not given with the values) | Am2.2-beta2AR cells; reference of the scale not given here | Beta-2 adrenergic receptor (Homo sapiens), P07550 | hit rate 0.43% among 340,000;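 active = response above a set limit, near 3 SD of response in nonfluorescent compounds, cut at about 42% in these data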;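 note: stock transfer was 100 nL into about 11 µL; a reference agonist was the positive control; negative values mostly stem from fluorescent compounds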
Target sequence (P07550 whole entry, looked up): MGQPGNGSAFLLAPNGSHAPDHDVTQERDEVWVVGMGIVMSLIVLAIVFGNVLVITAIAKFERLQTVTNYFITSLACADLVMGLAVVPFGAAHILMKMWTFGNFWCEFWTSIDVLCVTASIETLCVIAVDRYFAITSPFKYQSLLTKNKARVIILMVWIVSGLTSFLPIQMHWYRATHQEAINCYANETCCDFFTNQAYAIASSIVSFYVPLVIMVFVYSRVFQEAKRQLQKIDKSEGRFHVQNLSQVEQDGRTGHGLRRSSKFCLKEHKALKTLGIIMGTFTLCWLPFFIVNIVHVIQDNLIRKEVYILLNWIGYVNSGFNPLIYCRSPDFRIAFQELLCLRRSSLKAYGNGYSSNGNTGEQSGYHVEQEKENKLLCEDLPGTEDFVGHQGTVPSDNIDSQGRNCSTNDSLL
UCH37 inh = inhibitors of human UCH37 deubiquitinase, primary screen, biochemical, Ub-AMC cleavage, fluorescence. Ubiquitin carboxyl-terminal hydrolase isozyme L5 (Homo sapiens), Q9Y5K5. purified proteasome/UCH37. inhibition, % (test concentration not listed). hit rate 0.33% among 330,000;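 active = mean of two replicates above 20%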;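 note: 0% = compound-free wells with enzyme and 100% = wells lacking proteasome; stock transfer was 100 nL into about 20 µL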
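system = Proteasome-associated human UCH37 deubiquitinase | amount = 0.15 nM proteasome as dispensed | medium = pH 7.4 Tris-HCl (50 mM) with ovalbumin, ATP-MgCl2, DTT | incubation = 30 min preincubation with enzyme, 25 min cleavage at room temperature | detection = AMC fluorescence 355/460 nm | read-out basis = percent inhibition | controls = no-proteasome and no-compound wells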
Ecoli rRNA inh OD600 = further read-out of Ecoli rRNA inh, marked with its call; OD600 change, %; measured here: OD600 growth;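 optical density of the mix in the first replicate; 0 = DMSO median and -100 = no signal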
Ecoli rRNA inh RFP = second read-out of Ecoli rRNA inh, no call of its own (marks repeat the call); RFP signal change, %; measured here: RFP humanized mutant strains;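 first replicate; 0 = DMSO median and -100 = no signal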
Starred values were filed as active, the others as inactive; i = inactive; / = no result given; & = joins results of further samples. Some of the compounds tested (hit frequency here may not be typical).

SMILES | ALR H2O2 inh | Ecoli rRNA inh | Ecoli rRNA inh OD600 | Ecoli rRNA inh RFP | HNF4A DNA FP | E coli growth | FGF22 binding | B2AR ag | UCH37 inh
Cn1c(=O)c(C(=O)N2CCc3ccccc32)cc2cccnc21 | -7 | 11 | 15 | -0.6 | 2.2 | 0.67 | i | 4 | 7.5
O=C1CCCC(O)=C1N=Nc1c(Cl)cc(Cl)cc1Cl | / | / | / | / | -4.1 | 0.71 | / | -18 | 8.6
CCCC(=O)Nc1cccc(-c2cn3cccnc3n2)c1 | -2 | -3 | 8 | 0.5 | 2.6 | 0.69 | i | -13 | i
CCC(=O)N/C(=N/c1nc(C)cc(C)n1)Nc1ccc(OC)cc1 | -2 | 5 | 8 | 3.3 | -0.2 | 0.68 | i | -7 | 0.4
COc1ccc(N/C(=C/[N+](=O)[O-])SC)cc1 | 67 | 0 | -12 | 0.0 | -0.5 | 0.71 | i | 23 | 0.3
COc1ccc(C2CC(=O)c3cnc(NC(=O)c4ccccc4OC)nc3C2)c(OC)c1 (stereo not drawn) | -14 | / | / | / | -1.1 | 0.77 | / | 5 | 0.2
Cc1nn(-c2ccccc2)c2[nH]c(=O)c(CNCC3CCCO3)cc12 (stereo not drawn) | -5 | / | / | / | -0.6 | 0.75 | / | 7 | -2.0
CC(C)n1cc(CN2CCN(C)C(CCO)C2)c2ccccc21 (stereo not drawn) | -3 | 14 | -4 | -3.6 | -1.2 | 0.67 | i | 1 | 1.9
Nc1nc(SCc2ccc([N+](=O)[O-])cc2)c2ncn(C3OC(CO)C(O)C3O)c2n1 (stereo not drawn) | -6 | -9 | 1 | -4.0 | 2.6 | 0.67 | i | 0 | 4.1
CN(CCC1CCOCC1)C(=O)CC1C(=O)NCCN1Cc1ccccc1F (stereo not drawn) | -18 | 17 | 16 | 0.6 | 0.6 | 0.7 | i | 5 | -62
COc1ccc(/C=C(\NC(=O)c2ccccc2)C(=O)N/N=C/c2cccnc2)cc1 | 7 | 0 | 12 | 0.9 | 2.0 | / | i | -3 | /
O=C(NNC(=S)NC1CCCCC1)c1ccc2c(c1)OCO2 | 22 | 2 | 0 | -1.5 | -1.2 | 0.66 | i | -1 | 0.0
Cc1cc(=O)c2c(C)ccc(C)c2[nH]1 | -2 | -7 | -5 | 1.8 | 0.0 | / | i | 9 | /
C[C@H](NC(=O)c1ccco1)C(=O)Nc1cc(S(=O)(=O)N2CCCC2)ccc1OCC(F)(F)F | 0 | 9 | 8 | -1.4 | 1.4 | 0.68 | i | 10 | -0.6
O=C(NC(=S)Nc1ccccn1)c1cc(-c2ccccc2)nc2ccccc12 | 5 | / | / | / | -2.5 | 0.66 | / | -15 | 6.0
N#CCSCC(=O)Nc1ccc(Cl)cc1 | 99* | / | / | / | 3.2 | 0.72 | / | 11 | 5.3
COc1ccc(NC(=O)CSc2nnc(-c3ccccn3)n2-c2ccccc2)cc1OC | 0 | / | / | / | 1.2 | 0.74 | / | -4 | 1.4
CCC1CCCCN1CCCNC(=O)CCC(=O)N1CC(C)Oc2ccccc21 (stereo not drawn) | -2 | 14 | 9 | -0.2 | 3.3 | 0.71 | i | 4 | 1.9
C/C=C/C(=O)Nc1nnc(C2CCCCC2)s1 | -4 | / | / | / | -1.8 | 0.69 | / | -11 | 0.5
COc1ccc(C(=O)COC(=O)c2sc(C)nc2C)cc1Cl | 15 | -8 | -13 | 1.1 | 9.8 | 0.7 | i | 1 | 2.2
CC1(c2ccc(Cl)cc2)NC(=O)N(CC(=O)NCc2ccc(F)cc2)C1=O (stereo not drawn) | 3 | -6 | -3 | 0.4 | 0.1 | 0.67 | i | -5 | -0.8
COCCCN1C(=O)C(CC(=O)NCC2CCCCC2)CC(C(=O)N(C(C)C)C(C)C)=C1C (stereo not drawn) | / | -5 | 0 | -0.8 | -3.4 | / | i | / | /
CC(=O)Nc1ccc(S(=O)(=O)N(C)CC(=O)OC(C)C(=O)N(C)Cc2ccccc2)cc1 (stereo not drawn) | -2 | -4 | 1 | 2.6 | -4.8 | 0.74 | i | 3 | -3.3
CC(C)C(C(=O)N1CCN(Cc2ccccc2)CC1)c1ccccc1 (stereo not drawn) | / | -5 | -13 | 0.3 | 1.9 | 0.66 | i | -5 | 4.2
O=C(O)/C=C/C(=O)Nc1nccs1 | / | 3 | -1 | 4.2 | -2.4 | 0.67 | i | -7 | 1.9
c1ccc2cc(OCCOCCOc3ccc4ccccc4c3)ccc2c1 | -6 | 7 | 9 | 2.6 | 1.2 | 0.7 | i | 0 | 3.0
c1ccc(Nc2ncnc3sccc23)cc1 | / | 3 | -4 | -4.1 | 1.2 | 0.63 | i | 2 | -2.2
O=C(c1c(F)c(F)c(F)c(F)c1F)N(Cc1ccccc1)Cc1ccccc1 | -3 | / | / | / | 1.2 | 0.74 | / | 19 | 3.0
Cc1scc(C(=O)O)c1-c1c(C(=O)O)csc1C | / | 20 | -4 | -5.3 | -4.2 | 0.67 | i | 1 | 1.3
CN1CCOC(=O)/C1=N/Nc1cc(Cl)ccc1Cl | -10 | / | / | / | -2.1 | 0.64 | i | -1 | 2.6
CSCC[C@H](NC(=O)c1cccc(S(=O)(=O)N2CCN(C)CC2)c1)c1nc2ccccc2[nH]1 | -2 | 3 | 9 | -2.1 | 4.8 | 0.7 | i | -27 | 5.6
COc1cccc(NC(=O)CNC(=O)c2ccc(F)cc2)c1 | 14 | / | / | / | -3.0 | 0.75 | / | -1 | 3.4
COc1ccc(C(=O)Nc2ccc(NC(=O)c3cccs3)cn2)cc1 | / | 3 | 20 | -2.4 | 4.8 | 0.68 | i | -5 | -25
CN(Cc1ccc(-n2cccn2)cc1)Cc1nc(-c2cnccn2)no1 | 0 | 25 | 16 | 3.4 | 0.4 | 0.72 | / | -2 | -2.2
CCCc1nc2c(sc3nc4c(cc32)COC(C)(C)C4)c(=O)o1 | 66 | 7 | 11 | 2.4 | 0.7 | 0.65 | i | 4 | -41
CC(C)Cc1nc(SCC(=O)N2CCCCC2)c2c(=O)n(C)c(=O)n(C)c2n1 | 0 | -6 | -22 | -2.7 | 5.0 | 0.71 | i | -14 | 2.0
CC1(C)CC(=O)C2=C(C1)OC(N)=C(C#N)C21C(=O)N2CCCc3cccc1c32 (stereo not drawn) | -6 | / | / | / | 2.5 | 0.66 | / | -3 | 3.3
O=C(Nc1ccncc1)Nc1ccc(F)cc1 | -13 | 1 | 2 | -0.3 | 2.9 | 0.69 | i | 5 | 2.9
Cc1cc(C)c2c(=O)[nH]c(SCC(=O)N3CCCCC3)nc2n1 | 28 | / | / | / | 1.6 | 0.66 | / | -3 | -25
Cc1ccc(Cn2c(SCC(=O)N/N=C/c3ccccc3OCC(=O)O)nc3ccccc32)cc1 | -5 | 0 | 3 | 10 | 4.9 | / | i | -5 | /
Cc1ccc(C(=O)CSc2nc(O)cc(=O)[nH]2)cc1C | / | 13 | 17 | 1.9 | 1.0 | 0.67 | i | -1 | 18
CCC(C)c1ccc(S(=O)(=O)N2CCN(C(=O)c3ccc(Cl)c(S(=O)(=O)N4CCOCC4)c3)CC2)cc1 (stereo not drawn) | / | -1 | 2 | 4.6 | -5.6 | 0.7 | i | 1 | 4.6
CSc1nc2ccccc2c(=O)n1N | -2 | / | / | / | 1.6 | 0.7 | / | -5 | 0.2
O=C(Nc1ccc(N2CCOCC2)c(Cl)c1)c1ccc(S(=O)(=O)N2CCOCC2)cc1 | -3 | -1 | -15 | -2.6 | 1.2 | 0.66 | i | 8 | 5.8
CCCN(CCC)S(=O)(=O)c1ccc(Cl)c([N+](=O)[O-])c1 | 5 | 11 | 5 | 3.2 | -2.8 | 0.68 | / | 44* | 2.7
COC(=O)C(N)Cc1ccc(O)cc1 (stereo not drawn) | -10 | / | / | / | 0.1 | 0.7&0.72 | / | 1 | 3.3
CC(=O)c1cnc(-c2ccccc2)s1 | / | 6 | 7 | 1.7 | -0.7 | 0.68 | i | -1 | 4.3
C/C(=N/NC(=O)CNC(=O)c1ccccc1F)c1ccc2c(c1)CCCC2 | -5 | 31 | 23 | 0.3 | -3.1 | / | i | -6 | /
CNC(=O)c1c(NC(=O)CCS(=O)(=O)c2ccccc2)sc(C)c1C | 43 | 6 | 6 | -0.9 | 2.8 | 0.64 | i | -5 | 3.3
CCOC(=O)c1ccc(NC(c2ccc(N(C)C)cc2)P(=O)(OC(C)C)OC(C)C)cc1 (stereo not drawn) | 53 | 7 | 10 | 0.8 | 1.3 | 0.68 | i | -1 | 0.7
New compounds follow
SMILES | ALR H2O2 inh | Ecoli rRNA inh | Ecoli rRNA inh OD600 | Ecoli rRNA inh RFP | HNF4A DNA FP | E coli growth | FGF22 binding | B2AR ag | UCH37 inh
CCO[C@@H]1OC(C(=O)N2CCCCCCC2)=C[C@H](C2CCCCC2)[C@H]1CCCO | -5 | 7 | 9 | 12 | 1.2 | / | i | -1 | 5.0
O=C(c1cc(-c2cccc(Cl)c2)on1)N1CCN(c2ccc(F)cc2)CC1 | / | 15 | 19 | -0.6 | 1.8 | 0.69 | i | 4 | -2.6
CN(c1ccccc1)c1ncccn1 | -3 | / | / | / | 2.2 | 0.64 | i | 0 | 6.2
Nc1ccccc1C(=O)N/N=C1/C2CN3CCN(C2)CC1(Cc1ccccc1)C3 | -4 | 11 | 7 | -1.3 | 3.6 | / | i | -11 | /
N#CC1=C(N)NC(=S)C(C(N)=O)C1c1ccc(Cl)cc1Cl (stereo not drawn) | 24 | 12 | 9 | 1.6 | 2.6 | 0.64 | i | -2 | 3.2
COc1ccc(S(=O)(=O)N2CCC(=O)N2)cc1 | 22 | / | / | / | 0.7 | 0.7 | / | 6 | 2.8
O=C(NCCCNC(=O)c1ccccn1)c1cccc(F)c1 | -2 | 1 | 9 | 0.5 | 0.2 | 0.68 | i | 6 | -0.1
CCOc1ccc(Oc2ccc(S(=O)(=O)N3CCOCC3)cc2NC(=O)C2=COCCO2)cc1 | -9 | -1 | -2 | 1.3 | -1.3 | 0.69 | i | 0 | -0.3
O=C(O)c1cc(S(=O)(=O)NC(CO)C(O)c2ccc([N+](=O)[O-])cc2)ccc1Br (stereo not drawn) | -7 | 4 | 4 | -1.4 | 0.7 | 0.68 | i | -6 | 2.3
COc1ccc(CN2CN(C(C)C)CSC2=S)cc1 | 11 | / | / | / | 1.7 | 0.55 | / | -2 | 2.3
